S aureus helic: inhibitors of S. aureus replicative helicase, primary screen, biochemical, fluorescence unwinding readout. purified S. aureus helicase, fluorescence unwinding assay; about half of the hits fall short of the stated cut. inhibition, %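 (tested at about 80 µM)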. hit rate 0.05% among 120,000;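 active = both duplicates at 50% or more, or one of them with a favoured structure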;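 note: 0% = mean of negative control wells and 100% = mean of positive control wells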
MgrA DNA FP: S. aureus MgrA activity modulators, primary screen, biochemical, S. aureus Newman, fluorescence polarization; hit rate 0.13% among 84,000; MgrA-DNA binding; inhibition, %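 (about 10 µg/mL by stock and volumes)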; AID 602314, 2012;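 active = above 50% in either of two replicates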;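 note: 0% = protein plus DNA without compound and 100% = DNA alone without protein; higher means less MgrA bound to DNA so lower polarization; one replicate is shown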
An asterisk follows results filed as active; . = not tested or not shown; & = joins results of further samples. A portion of the library (hit frequency here may not be typical).

SMILES	S aureus helic	MgrA DNA FP
O=C(CSc1nnc(C2CC2)n1C1CC1)c1cc(Cl)sc1Cl	4	.
COCC(C)n1c(=S)nnc2c3ccccc3[nH]c21 (stereo unspecified)	-4	.
CCCn1c2ccccc2c2nnc(SCC(=O)NC3CCCC3)nc21	1	.
NCc1nc2ccccc2c(=O)[nH]1	-14	3.1
COc1ccccc1CN=C1NC(=O)C(CC(=O)Nc2ccc(OC)c(OC)c2)S1 (stereo unspecified)	5	.
CCC(C)Cn1c(Cc2ccc(OC)cc2)nc2ccccc21 (stereo unspecified)	3	-1.4
CC1(C)OC(=O)C(=C2CCCCCN2)C(=O)O1	-2	2.9
Cc1[nH]c(=O)[nH]c(=O)c1Cc1cccc2ccccc12	17	-1.1
O=C(OC(C(=O)c1ccccc1)c1ccccc1)c1cccc(O)c1 (stereo unspecified)	-19	-1.0
N#CC(c1ccccc1)N1CCSCC1 (stereo unspecified)	.	-1.4
Cc1nn(-c2ccccc2)c2c1C=Nc1cc(Cl)ccc1O2	1	.
c1ccc(OCc2nn3cnnc3s2)cc1	-13	.
CSc1ccccc1-c1nnc(NC(=O)Cc2ccccc2)o1	11	.
Cc1cc(C)cc(-n2c(C)cc(/C=N/NC(=O)CSc3ncccn3)c2C)c1	0	-8.6
Cc1nc2c(c(C)nn2C)c(C)c1CCC(=O)NCCCc1ccccc1	5	0.3
CC(C)Cc1ccc(S(=O)(=O)NC2CCCCC2C)cc1 (stereo unspecified)	12	-1.1
O=C(Nc1ccccc1)c1ncn(-c2ccccc2)n1	-19	.
S=c1n(CN2CCCC2)nc2c(Cl)cc(Cl)cn12	-6	.
COC(=O)c1n[nH]c(=O)c2ccccc12	-11	.
COc1cccc(-c2cc(C(F)(F)F)n3ncc(C(=O)N(C)CCc4ccccn4)c3n2)c1	9	-0.3
CC(C)c1ccccc1NC(=O)CN1c2ccccc2CC1C (stereo unspecified)	5	.
N#Cc1ccc(S(=O)(=O)N2CCC(N3CCCCC3)CC2)cc1	-17	.
O=C(COC(=O)c1cc(Cl)nc(Cl)c1)Nc1cccc2ccccc12	-8	-0.9
CCCCN(C)C(=O)Cc1ccc(-n2c(=S)[nH]c3ccccc3c2=O)cc1	8	1.5
C=CCSc1ccc(OCC(F)(F)F)c(C#N)c1OCC(F)(F)F	.	-8.1
Going on with the list:
SMILES	S aureus helic	MgrA DNA FP
O=C(CSC(=S)N1CCCC1)c1ccccc1	-15	3.7
CC(=O)Nc1c(Br)c(C2CC2)nn1-c1ccccc1	.	-5.5
COC(=O)Cn1c(=N)n(Cc2ccccc2)c2ccccc21	22	.
O=C(CN1C(=O)CSC1=O)NC1CCCCC1	14	0.0
O=C(NC1(C(F)(F)F)NC(=O)N(Cc2ccccc2)C1=O)c1ccco1 (stereo unspecified)	23	.
COc1cc(-n2c(=O)c3ccccc3n(CC(=O)NCc3ccco3)c2=O)cc(OC)c1OC	-1	.
c1ccc(C(CNc2ncccn2)c2ccccc2)cc1	18	1.1
C=CCN(CC(=O)NC1CC1)S(=O)(=O)c1cccc(C(F)(F)F)c1	22	.
COc1ccc(OCc2nc3ccccc3[nH]2)cc1	8	0.1
CCOC(=O)c1nn(-c2ccccc2)c(C#N)c1N	15	-0.3
Cc1n[nH]c(=S)n1/N=C/c1c[nH]c2ccccc12	-6	0.0
CCCCNC(=O)C1CCN(c2nc(OC)nc(OC)n2)CC1	16	-2.6
CNC(C)CN1c2ccccc2Sc2ccccc21 (stereo unspecified)	.	-1.5
COC(=O)COc1ccc2ccc(=O)oc2c1	12	.
CCc1nc2sc3c(NCCN(C)C)ncnc3c2c2c1CCCC2	10	.
CCOC(=O)c1ccc(NC(=O)CCN2C(=O)S/C(=C/c3ccc(OC)cc3)C2=O)cc1	.	2.7
O=C(CSc1cccc[n+]1[O-])N1CCCCC1	-15	-1.8
COC(=O)COc1ccc(/C=C2\C(=O)NC(=O)N(c3ccc(Cl)cc3)C2=O)cc1OC	.	8.1
N#CCC(=O)N1CCN(C(c2ccccc2)c2ccccc2)CC1	8	.
COc1ccc(CC2CCC(=NO)CC2)cc1 (stereo unspecified)	.	-0.7
O=C1CC(C(=O)Nc2ccc3c(c2)OCCO3)n2c(nc3ccccc32)N1 (stereo unspecified)	-24	.
C=CCNc1nc(C(=O)O)cs1	-20	.
O=C(OC1CCS(=O)(=O)C1)c1ccc(Br)o1 (stereo unspecified)	0	.
O=S(=O)(CCc1nc2ccccc2[nH]1)CCc1nc2ccccc2[nH]1	17	.
Cc1ccccc1Nc1nc(N)nc(Cn2nc(C(=O)O)c3ccccc3c2=O)n1	-8	.

Ordered by formula weight (rising): some entries from above
SMILES	S aureus helic	MgrA DNA FP
NCc1nc2ccccc2c(=O)[nH]1	-14	3.1
C=CCNc1nc(C(=O)O)cs1	-20	.
N#CC(c1ccccc1)N1CCSCC1 (stereo unspecified)	.	-1.4
c1ccc(OCc2nn3cnnc3s2)cc1	-13	.
O=C(CSc1cccc[n+]1[O-])N1CCCCC1	-15	-1.8
CCOC(=O)c1nn(-c2ccccc2)c(C#N)c1N	15	-0.3
Cc1n[nH]c(=S)n1/N=C/c1c[nH]c2ccccc12	-6	0.0
CNC(C)CN1c2ccccc2Sc2ccccc21 (stereo unspecified)	.	-1.5
COCC(C)n1c(=S)nnc2c3ccccc3[nH]c21 (stereo unspecified)	-4	.
c1ccc(C(CNc2ncccn2)c2ccccc2)cc1	18	1.1
COC(=O)Cn1c(=N)n(Cc2ccccc2)c2ccccc21	22	.
S=c1n(CN2CCCC2)nc2c(Cl)cc(Cl)cn12	-6	.
CCC(C)Cn1c(Cc2ccc(OC)cc2)nc2ccccc21 (stereo unspecified)	3	-1.4
O=C(OC1CCS(=O)(=O)C1)c1ccc(Br)o1 (stereo unspecified)	0	.
CC(=O)Nc1c(Br)c(C2CC2)nn1-c1ccccc1	.	-5.5
O=C(OC(C(=O)c1ccccc1)c1ccccc1)c1cccc(O)c1 (stereo unspecified)	-19	-1.0
N#Cc1ccc(S(=O)(=O)N2CCC(N3CCCCC3)CC2)cc1	-17	.
O=S(=O)(CCc1nc2ccccc2[nH]1)CCc1nc2ccccc2[nH]1	17	.
O=C1CC(C(=O)Nc2ccc3c(c2)OCCO3)n2c(nc3ccccc32)N1 (stereo unspecified)	-24	.
O=C(NC1(C(F)(F)F)NC(=O)N(Cc2ccccc2)C1=O)c1ccco1 (stereo unspecified)	23	.
CCCn1c2ccccc2c2nnc(SCC(=O)NC3CCCC3)nc21	1	.
Cc1ccccc1Nc1nc(N)nc(Cn2nc(C(=O)O)c3ccccc3c2=O)n1	-8	.
COC(=O)COc1ccc(/C=C2\C(=O)NC(=O)N(c3ccc(Cl)cc3)C2=O)cc1OC	.	8.1
COc1cccc(-c2cc(C(F)(F)F)n3ncc(C(=O)N(C)CCc4ccccn4)c3n2)c1	9	-0.3

Going on with the list:
SMILES	S aureus helic	MgrA DNA FP
CCOc1cc2[nH]c(=S)n(CCCCC(=O)N3CCCCCC3)c(=O)c2cc1OCC	5	-2.0
CSc1nccc(-c2ccc(S(=O)(=O)N(CCC#N)Cc3ccco3)s2)n1	.	0.7
CCN(CC)c1cnn(-c2ccc(C(F)(F)F)cc2)c(=O)c1Cl	.	0.3
C=CCc1c(NCCO)nc(C)[nH]c1=O	3	0.3
CC(C)C(c1nnnn1CCc1ccccc1)N1CCCC1 (stereo unspecified)	-4	0.5
COc1cc(C(=O)Oc2ccc(-c3nnco3)cc2)ccc1OC(F)F	4	.
COC(=O)Cc1c(C(=O)OC)sc(N)c1C(=O)OC	3	.
CN(C)c1nc2nonc2nc1Nc1ccc(F)cc1	37	.
O=C(Nc1ccc(N2C(=O)c3cccnc3C2=O)cc1)c1ccco1	-4	0.2
CCOC(=O)NN1C(=O)c2ccccc2NC1c1ccccc1 (stereo unspecified)	2	.
Cc1ccc(NC(=O)CN(C)C(=S)NC2CC2)cc1	15	.
COC(=O)c1cnc(NC(=O)c2ccc3c(c2)S(=O)(=O)N=C2CCCCCN23)s1	-8	.
COc1ccc(Nc2cc(C)c3cc(NC(=O)c4ccco4)ccc3n2)cc1	-24	.
CCSc1nnc(NC(=O)c2ccc(C(=O)c3ccccc3)cc2)s1	14	.
O=C(CC1Sc2ccccc2NC1=O)OCN1C(=O)c2ccccc2C1=O (stereo unspecified)	-2	.
COc1ccc(CCNC(=O)CSC2=NCCS2)cc1OC	2	.
O=C(NNC(=O)c1ccccc1)Nc1ccccc1	.	-1.0
COc1cc(C=C2C(=O)N(C)C(=O)N(C)C2=O)ccc1OS(=O)(=O)c1ccccc1[N+](=O)[O-]	.	4.3
COc1ccc(NC(=O)CC2SC(=Nc3ccccc3)N(CCO)C2=O)cc1 (stereo unspecified)	-1	-0.7
COc1cc(/C=N/S(=O)(=O)CCc2ccccc2)cc(OC)c1O	7	.
Cc1nn(C(=O)CCC(=O)N2CC(C)CC(C)C2)c2ccccc12 (stereo unspecified)	20	.
CCOC(=O)c1c(NC(=O)CCN2C(=O)c3ccccc3C2=O)sc(C(C)=O)c1C	.	-0.5
Cc1ccc(NC(=O)C(C)Nc2ccccc2C)cc1 (stereo unspecified)	-3	2.0
NNCCc1ccccc1	.	3.4&-4.2
COc1ccc(C2=NN(C(=O)COc3ncnc4ccccc34)C(c3ccco3)C2)cc1 (stereo unspecified)	29	.
(more compounds)
SMILES	S aureus helic	MgrA DNA FP
COC(=O)CSC1=C(C#N)C(c2ccccc2C)C(C#N)C(=O)N1 (stereo unspecified)	-14	.
CC(=O)NCc1ccc(C(=O)CSc2nc3ccccc3n2-c2ccccc2)s1	-10	.
O=C1C=CC(=O)N1CCNc1ncc(C(F)(F)F)cc1Cl	.	1.4
CC(C)N(CC(=O)Nc1ccc2c(c1)OCCO2)c1ccccc1	-5	.
COC(=O)c1ccc(Nc2cc(C)nc3ccccc23)cc1	11	-0.6
CC(NC(=O)C(c1ccccc1)c1ccccc1)C(=O)N1CCCCC1 (stereo unspecified)	22	.
CC(C)N1C(=O)CSC1c1ccc(Br)cc1 (stereo unspecified)	-3	-0.2
CCOC(=O)c1ccccc1NC(=O)CSc1nnc(Cc2cccn2C)n1-c1ccc(F)cc1	-3	1.1
CCOC(=O)c1ccoc1CN1CCN(c2ccc(F)cc2)CC1	11	.
CC1CN(C(=O)CSCc2ccccc2)CC(C)O1 (stereo unspecified)	5	-2.5
O=C(O)C1C2C=CC(C2)C1C(=O)NCc1ccc(-c2cccs2)s1 (stereo unspecified)	.	-2.6
CCCSc1nnc2c(n1)OC(c1ccco1)Nc1ccccc1-2 (stereo unspecified)	.	2.2
c1csc(Cc2cccs2)c1	.	-1.9
C/C(=N\OC(=O)c1ccco1)c1ccccc1O	-22	.
COC(=O)c1ccccc1N=NNc1cc(OC)cc(C(F)(F)F)c1	.	-0.3
CC(C)(C)C(CN1CCCC1)OC(=O)c1ccccc1 (stereo unspecified)	-2	0.0
Cc1ccc(-n2nnnc2SCCN2C(=O)c3ccccc3C2=O)c(C)c1	10	.
NC(=O)C1CCN(CC(O)COc2ccc(-c3csnn3)cc2)CC1 (stereo unspecified)	.	1.1
NS(=O)(=O)c1ccc(CCNC(=O)c2cc3c(Cl)ccc4c3n2CCO4)cc1	13	.
C=CCNC(=O)c1cc2c(=O)c3ccccc3oc2nc1C(F)(F)F	.	-1.9
CCCC(CC(=O)N1CCN(C/C=C/c2ccccc2)CC1)n1ccnc1 (stereo unspecified)	-7	.
O=C(CSc1nnc(-c2ccc3c(c2)OCO3)o1)c1ccccc1	11	.
CCOc1ccc(Nc2ncccc2C#N)cc1	3	.
O=C(Nc1ccc2nc(-c3cccs3)[nH]c2c1)c1cccs1	-5	-1.7
CCOC(=O)Cn1sc2nc(C)cc(C)c2c1=O	.	9.4
(continued)
SMILES	S aureus helic	MgrA DNA FP
C=CCN(C(=O)CSc1nnc(-c2cc3occc3n2C)n1-c1ccccc1C)c1ccccc1	3	0.5
c1ccc(-c2ccccc2OCc2nnc3n2CCC3)cc1	23	-1.8
N=C(N)n1nc(-c2ccccc2)cc1N	7	-3.1
O=S(=O)(Nc1ccccc1CO)c1ccc(F)cc1	-10	-2.8
Cc1nn(-c2ccccc2)c2c1C(C(F)(F)F)(C(F)(F)F)C(C#N)=C(N)O2	1	-1.9
COc1ccc(CN(C(=O)CCN2C(=O)c3ccccc3S2(=O)=O)c2ccccc2O)cc1	2	-1.2
CCN1/C(=C2/SC(=S)N(N)C2=O)C=Cc2cc(C)ccc21	6	3.8
Cc1ccc(C(C(=O)Nc2ccc3c(c2)OCCO3)N(C)C(=O)Cc2cccs2)cc1 (stereo unspecified)	-6	.
CCN1CCCC1CNS(=O)(=O)c1ccc(-c2cc(C(F)(F)F)no2)s1 (stereo unspecified)	6	.
O=C(c1cccs1)n1cc2c(n1)-c1cc(Cl)ccc1SC2	20	.
COC(=O)c1ccc(Cl)cc1N(CCCC#N)S(=O)(=O)c1ccc(Cl)cc1	.	0.6
CC(C)(C)N(Cc1ccccc1)C(=O)CSc1nnc(-c2ccccc2)o1	3	.
CCn1c(C)nc2cc(CO)ccc21	1	.
O=C(C[n+]1cccc(/C=N/O)c1)N1CCOCC1	19	.
CC1(C)CC(=O)CC(C2(O)C(=O)N(Cc3ccccc3)c3ccccc32)O1 (stereo unspecified)	3	-0.5
Cc1ccc2[nH]c(=O)c3cc(C(=O)N(C)c4cccc(Cl)c4)sc3c2c1	18	0.1
COC(=O)c1cnn(-c2ccc(F)cc2F)c1C(OC)OC	.	0.9
CS(=O)(=O)c1ccc2nc(NC(=O)c3ccccc3Oc3ccccc3)sc2c1	-10	.
O=C(ON1C(=O)CCC1=O)c1ccc(Br)o1	12	22
O=C(c1ccc(F)cc1)c1cc2cc(Cl)cc(Cl)c2o1	.	-2.4
OCCN1CCN(CC2CC=CCC2)CC1 (stereo unspecified)	-7	-2.9
Cc1nc2ccccc2c2c1C(=O)NC2=O	6	.
CCC(=O)Nc1cccc(-c2nc3ccccc3[nH]2)c1	1	.
NS(=O)(=O)c1ccc(N=Cc2ccccc2)cc1	-18	.
CCN(CC)C(=O)Cn1cc(C#N)c2ccccc21	17	4.7
COC(=O)c1cccc(C(=O)OC)n1	-1	0.1
